# GLA inh pH 4.5 = qHTS Assay for Inhibitors of Human alpha-Galactosidase at pH 4.5. Alpha-galactosidase A (Homo sapiens), P06280. purified enzyme, 4-MU-alpha-Gal fluorescence, pH 4.5. activity change, negative = inhibition, % at 105 µM. 230,000 tested, under 10 active. AID 1467, 2008; inconclusive = small, poorly fitted or top-dose-only inhibition, or a rising curve; inactive = flat fitted curve, though single readings scatter; no compound was filed as active;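 note: 0% = full activity with enzyme and -100% = basal without enzyme; dose as in the result columns while the protocol names 77 µM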
# Rango complex inh = qHTS Assay for Inhibitors of Rango (Ran-regulated importin-beta cargo) - Importin beta complex formation. actives 0.031% (n = 340,000). Importin subunit beta-1 (Homo sapiens), Q14974. Rango CFP/YFP FRET sensor + importin beta, 45 min. Potency, µM (doses to about 92.2 µM), for inactives: at the highest dose inhibition of complex formation; active = rising FRET ratio curve, often small or poorly fitted; inconclusive = mostly compound fluorescence or quenching in the first reads; inactive = flat curves in all reads;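 note: potency is the fitted concentration of half-maximal effect; 0% = DMSO wells and 100% = buffer wells lacking importin beta; nearly all actives have a fitted effect of over 15% in size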
# Target sequence (Q14974 whole entry, looked up): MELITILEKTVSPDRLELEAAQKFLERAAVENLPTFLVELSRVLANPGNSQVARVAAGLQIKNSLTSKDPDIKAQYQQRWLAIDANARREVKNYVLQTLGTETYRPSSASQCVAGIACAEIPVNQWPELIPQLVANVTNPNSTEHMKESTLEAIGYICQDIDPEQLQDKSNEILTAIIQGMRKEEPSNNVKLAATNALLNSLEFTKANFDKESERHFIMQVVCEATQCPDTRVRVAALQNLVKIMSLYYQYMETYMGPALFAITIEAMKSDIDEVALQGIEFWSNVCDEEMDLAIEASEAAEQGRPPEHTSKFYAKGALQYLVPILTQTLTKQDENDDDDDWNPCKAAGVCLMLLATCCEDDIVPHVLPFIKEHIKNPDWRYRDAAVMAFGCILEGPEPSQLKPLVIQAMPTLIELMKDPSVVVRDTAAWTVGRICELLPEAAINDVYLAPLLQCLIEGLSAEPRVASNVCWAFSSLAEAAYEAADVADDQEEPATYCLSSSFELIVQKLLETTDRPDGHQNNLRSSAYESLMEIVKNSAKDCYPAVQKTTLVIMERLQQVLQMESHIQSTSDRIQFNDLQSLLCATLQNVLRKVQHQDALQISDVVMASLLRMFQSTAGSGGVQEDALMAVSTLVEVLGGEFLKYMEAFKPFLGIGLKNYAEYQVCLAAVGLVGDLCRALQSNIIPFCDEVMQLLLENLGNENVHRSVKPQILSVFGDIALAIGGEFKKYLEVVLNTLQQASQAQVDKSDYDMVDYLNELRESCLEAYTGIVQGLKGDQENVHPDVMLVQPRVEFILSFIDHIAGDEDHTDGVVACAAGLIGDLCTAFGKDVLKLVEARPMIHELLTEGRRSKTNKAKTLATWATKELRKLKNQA
#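 Inhibition scored from the CFP 486 nm/YFP 530 nm FRET ratio 45 min after adding 0.125 microM importin beta to 50 nM Rango biosensor preincubated 5 min with compound (room temperature, PBS with DTT, Tween-20, BSA). No-importin wells as positive control.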
# miR-21 FLuc = qHTS Assay for Modulators of miRNAs and/orActivators of miR-21. HeLa miR-21 FLuc reporter, luciferase, 48 h. Potency, µM (titrated, usually from 38.3 µM), inactives show at the top dose reporter change, positive = more light. 340,000 tested, under 10 active; active = well fitted rising curve with a large enough effect; inconclusive = small, poorly fitted or top-dose-only effect; inactive = no such curve, though single readings can be large or run the other way;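 note: % of control where 0% means no effect; miR-21 action dims this reporter so a rising signal means less miR-21 action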
#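 Luminescence from a firefly luciferase reporter carrying a miR-21 binding site downstream, stably expressed under a CMV promoter in HeLa cells that make miR-21 endogenously, reports miRNA modulation after 48 h compound exposure up to approximately 40uM final.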
# Rango release inh = qHTS Assay for Inhibitors of RanGTP induced Rango (Ran-regulated importin-beta cargo) - Importin beta complex dissociation. Snurportin-1 (Homo sapiens) + GTP-binding nuclear protein Ran (Homo sapiens) + Importin …. Biochemical FRET Rango-importin beta, RanGTP-induced dissociation. Potency, µM (series often up to 46.1 µM), for the others: at the top dose activity change, negative = inhibition. actives 0.071% (n = 340,000). AID 540253, 2011; active means falling FRET ratio curve, often poorly fitted, with flat reads before Ran was added; inconclusive means other falling curves, or compound fluorescence or quenching; inactive means flat or rising ratio curve;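 note: potency is the fitted concentration of half-maximal effect; % of control where 0% means no effect; nearly all actives have a fitted effect of over 45% in size; -100% = wells without RanGTP and RCC1; the record marks most hits as doubtful in a second field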
#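 Rango/importin beta premix (0.1/0.25 uM final), PBS + 1 mM DTT + 0.02% Tween-20 + 0.1% BSA; cpd 5 min RT; FRET pre-read; + RanGTP-RCC1 (0.6 uM Ran, 2 mM GTP, 0.2 uM RCC1); 45 min RT; FRET post-read, ex 430, em 486/530 nm.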
# Numbers without * were called inactive; ? = inconclusive; nt = no result given; & = joins results of further samples; [ ] = remark or other dose. These rows are one share of the data; count on the stated rates, not on these rows.
SMILES,GLA inh pH 4.5,Rango complex inh,miR-21 FLuc,Rango release inh
CCN(CC)S(=O)(=O)c1ccc(NC(=O)COC(=O)CNS(=O)(=O)/C=C/c2ccccc2)cc1,5,2.2%,7%,1%
COc1ccc(/C=C/C(=O)NCc2cccnc2)cc1,2,11%,-15%,-13%
COc1cc(C(=O)Nc2ccccc2C(=O)Nc2ccccn2)cc(OC)c1OC,nt,5.5%,17%,4%
COc1ccc(NC(C)=O)c(C)c1,4,0.2%,2%,17%
COc1ccc(-c2cn3c(C)c(C(=O)Nc4cccc(C)n4)sc3n2)cc1,-4,?,-6%,?
CCOC(=O)C1=CN2CCC[C@H]2CC1=O,nt,-4.5%,nt,15%
COc1cc(CNCCc2ccccc2)ccc1OCC(=O)NC(C)(C)C,-14,0.1%,5%,10%
Cc1ccc(CC(=O)NC2CCSC2=O)cc1 (stereo unspecified),-3,1.2%,-1%,-2%
O=C(O)CCCCCn1c(SCC(=O)N2CCCC2)nc2ccsc2c1=O,5,0.7%,-1%,-3%
CCC(C(=O)Oc1c(C(C)C)cccc1C(C)C)c1ccccc1 (stereo unspecified),nt,1.1%,nt,-9%
CC(=O)Nc1ccc(N/C=C/C(=O)c2ccco2)cc1,-3,?,-46%,?
COc1ccc(C2=NOC(C(=O)Nc3c(C)n(C)n(-c4ccccc4)c3=O)C2)cc1OC (stereo unspecified),3,-0.9%,0%,0%
NC(=O)CNC(=O)[C@@H]1CC2(CC(c3ccc(Cl)cc3)=NO2)CN1C(=O)c1ccccc1 (stereo partly specified),0,0.3%,-1%,6%
Cc1ccc(C(=O)NCc2ccncc2)cc1S(=O)(=O)N1CCCCC1,nt,1.2%,1%,-7%
COC(=O)C1CCN(C(=O)COC(=O)c2cc(-c3cccs3)nn2-c2ccccc2)CC1,nt,5.0%,nt,9%
CC(C)(C)NC(=O)NC(=O)CSc1ncc(C(F)(F)F)cc1Cl,-10,0.1%,-8%,4%
Cn1c(=O)c2c(nc(CN3CCN(C(=O)c4ccco4)CC3)n2CCCc2ccccc2)n(C)c1=O,-1,1.5%,-1%,1%
CSc1nnnn1-c1ccc(Cl)cc1,-4,2.4%,-4%,8%
CC1(CCc2ccccc2)NC(=O)N(Cc2nnc(-c3ccccc3Br)o2)C1=O (stereo unspecified),-1,0.6%,-3%,-1%
COC(=O)c1ccc(C)c(NS(=O)(=O)c2ccc(OC)cc2)c1,-1,-0.4%,25%,8%
CCN1C(=O)C(=O)N(CC(=O)N2CCC(C)Sc3ccccc32)C1=O (stereo unspecified),nt,2.3%,nt,?
CC(=O)Nc1ccc2c(c1)CCc1ccccc1-2,nt,-0.6%,-48%,-8%
COc1ccccc1NS(=O)(=O)c1cccc(C(=O)N2CCN(C(=O)c3ccco3)CC2)c1,nt,5.3%,nt,-3%
COCC(C)NCc1ccc(OC)c(Br)c1 (stereo unspecified),4,1.4%,-1%,3%
CCc1nnc(NC(=O)c2c(C)nn(-c3ccccc3)c2Cl)s1,3,0.9%,-20%,28%
CC(C)C(NC(=O)OCc1ccccc1)C(=O)OCC(=O)NC1CC1 (stereo unspecified),-1,0.9%,-6%,20%
O=C(NCc1ccc(OC(F)(F)F)cc1)C1CCC(=O)N(C2CC2)C1 (stereo unspecified),nt,1.7%,0%,1%
CCOc1ccccc1C1c2cc3c(cc2OC(C)(N2CCCC2)C1C)OCO3 (stereo unspecified),nt,-0.5%,nt,0%
Nc1nc(NC(=O)c2ccccc2)nn1-c1ccccc1,1,-0.7%,-43%,30%
C#CCOCCOCCOCCNc1nc(N2CCN(C(=O)[C@H](CCCCN)n3cc([C@@H](N)CO)nn3)CC2)nc(N2CCN(C(=O)[C@H](Cc3cc4ccccc4[nH]3)n3cc([C@@H](N)CC(C)C)nn3)CC2)n1,-6,nt,2%,nt

# Arranged by value in Rango complex inh (falling): some entries from above.
SMILES,GLA inh pH 4.5,Rango complex inh,miR-21 FLuc,Rango release inh
O=C(NCc1ccc(OC(F)(F)F)cc1)C1CCC(=O)N(C2CC2)C1 (stereo unspecified),nt,1.7%,0%,1%
NC(=O)CNC(=O)[C@@H]1CC2(CC(c3ccc(Cl)cc3)=NO2)CN1C(=O)c1ccccc1 (stereo partly specified),0,0.3%,-1%,6%
CC(=O)Nc1ccc2c(c1)CCc1ccccc1-2,nt,-0.6%,-48%,-8%

# Carrying on.
SMILES,GLA inh pH 4.5,Rango complex inh,miR-21 FLuc,Rango release inh
CNC(=S)Nc1ccc(OC(F)(F)F)cc1,1,2.0%,-5%,-14%
CC1Cc2ccccc2N1CC(=O)NC(=O)NC(C)(C)C (stereo unspecified),2[21.1 µM],1.9%,-5%,14%
CC(=O)N1CCC2(CC1)C(C#N)=C(N)Oc1n[nH]c(C)c12,-4,1.5%,-2%,1%
O=C1CCc2cc(S(=O)(=O)N3CCC(C(=O)NCCC4=CCCCC4)CC3)ccc2N1,3,0.4%,0%,-18%
COc1ccc(C(C(=O)NC(C)(C)C)N(C(=O)CCC(=O)Nc2cc(C)on2)c2ccc3c(c2)OCCO3)cc1 (stereo unspecified),nt,-3.6%,-10%,4%
O=S(=O)(c1cccc(Cl)c1Cl)N1CCN(C(=S)NCCCN2CCOCC2)CC1,5,-1.6%,0%,-13%
O=C1c2ccncc2C(=O)N1CNc1ccc(Cl)cc1,-3,0.7%,0%,1%
CCC(=O)N1CCN(c2ccc(NC(=S)NC(=O)C(C)C)cc2)CC1,-20,1.7%,-5%,7%
CCn1c(SCC(=O)N(C)CCC#N)nc2cc(S(=O)(=O)N3CCOCC3)ccc21,nt,1.2%,nt,17%
O=C(c1ccc(F)cc1)N1CCC(N2CCOCC2)CC1,12,-0.1%,1%,3%
CCCNC(=O)c1cc2ccccc2c(=O)o1,2,1.2%,-16%,0%
NS(=O)(=O)c1ccc(CNC(=O)CNC(=O)c2ccc(Br)o2)cc1,nt,0.4%,-14%,-3%
CCCn1cccc(C(=O)Nc2ccc(OC)cc2)c1=O,nt,-1.3%,-33%,-10%
O=C(Cc1ccc([N+](=O)[O-])cc1)Nc1ccc(Cl)cc1,-5,2.9%,-9%,-5%
CCCCc1ncc(CN2CCN(Cc3ccc(C)cc3)C(CCO)C2)[nH]1 (stereo unspecified),11,3.8%,-1%,9%
N#Cc1c(N)c(C(=O)c2ccccc2)n2ccccc12,nt,0.2%,nt,-11%
Cc1ccc(NC(=O)NC(=O)CN2CCCC2c2ccc3c(c2)OCCO3)cc1C (stereo unspecified),nt,0.4%,nt,-12%
CN(C(=O)CSc1nnc(-c2n[nH]c3ccccc23)o1)c1ccccc1,-8,-0.2%,-28%,1%
CC(C)NS(=O)(=O)c1ccc(NC(=S)NC(=O)c2cccc([N+](=O)[O-])c2)cc1,-4,5.7%,0%,-1%
COc1cc(C(=O)NCCC(=O)NCCCN2CCCCC2)cc(OC)c1OC,8,-0.4%,-1%,-8%

# For reference, some entries already given.
SMILES,GLA inh pH 4.5,Rango complex inh,miR-21 FLuc,Rango release inh
CCN(CC)S(=O)(=O)c1ccc(NC(=O)COC(=O)CNS(=O)(=O)/C=C/c2ccccc2)cc1,5,2.2%,7%,1%
COc1ccc(/C=C/C(=O)NCc2cccnc2)cc1,2,11%,-15%,-13%
COc1cc(C(=O)Nc2ccccc2C(=O)Nc2ccccn2)cc(OC)c1OC,nt,5.5%,17%,4%

# Further entries
SMILES,GLA inh pH 4.5,Rango complex inh,miR-21 FLuc,Rango release inh
COc1ccc(NC(=O)N2CCc3ccccc32)cc1,-4,-0.5%,-13%,-12%
COCc1nc2ccccc2n1CCOc1ccccc1OC,-13,3.9%,-7%,-2%
COC(=O)c1nn(-c2ccc(OC)cc2)ccc1=O,nt,?,-3%,-21%
CN(c1ccccc1C(=O)O)S(=O)(=O)c1ccc2c3c(cccc13)C(=O)N2,-8,-7.2%,0%,-9%
CCCc1nn(C(=O)c2ccccc2)c2c1C(=O)CC(C)(C)C2,0,?,-2%,14%
O=C(NCCCN1CCC(Cc2ccccc2)CC1)C1CCN(S(=O)(=O)N2CCOCC2)CC1,3,1.2%,0%,10%
Cc1ccc(N(CC(=O)NC2CCCC2)C(=O)CCC(=O)Nc2nccs2)c(C)c1,nt,0.0%,-10%,1%
CCOc1ccccc1NC1=CC(=O)CC(c2ccccc2)C1 (stereo unspecified),6,-0.3%,17%,-13%
Cc1cccnc1NC(=O)c1ccco1,nt,-3.5%,nt,-3%
CCOC(=O)c1c(C)[nH]c(C2=NNC(=NC3CC3)SC2)c1C,-9,-6.9%,10%,0%
CCOC(=O)Cc1nnc(-c2ccccc2)o1,3,-2.2%,-13%,-5%
NC(=O)CSc1oc(-c2ccco2)nc1S(=O)(=O)c1ccc(Br)cc1,nt,2.2%,10%&-2%,2%
CN1CCN(CC#CC(C)(O)C2CC3C=CC2C3)CC1 (stereo unspecified),-7,-0.4%,-6%,-8%
CCOC(=O)c1nn(-c2ccccc2C)c2nc(Nc3ccccc3)cc(=O)n12,-1,-1.0%,-5%,5%
CCOC(=O)c1cccc(NC(=O)CSc2nnc(CNc3ccc(C)cc3)n2CC)c1,2,2.6%,0%,15%
CCc1nc(C#N)c(N2CCOCC2)o1,-2,-2.5%,-2%,11%
O=C(Nc1ccccc1[N+](=O)[O-])c1cccnc1Cl,-3,0.9%,-6%,0%
Cc1[nH]c2c(Cl)cccc2c1CCNC(=O)C1CCCCC1C(=O)OCC(F)(F)F (stereo unspecified),5,0.2%,-9%,-9%
O=C(CCCN1C(=O)c2ccccc2C1=O)NCCC1=CCCCC1,-3,6.3%,0%,7%
Cc1cccc(NC(=O)CCC(=O)N/N=C/c2cccnc2)c1,nt,1.8%,-1%,5%
Cc1ccc(S(=O)(=O)N2CCC(=O)N(C(COCc3ccc(Cl)c(Cl)c3)Cc3ccccc3)CC2)cc1 (stereo unspecified),-7,-1.2%,-3%,26%
C=CCn1c(SCC(=O)Nc2ccc(C(=O)O)cc2)nc2scc(-c3ccccc3)c2c1=O,nt,-3.9%,nt,-2%
CN1C(=O)CSc2ccc(NC(=O)NCc3ccccc3)cc21,2,0.0%,2%,2%
O=C(Nc1ccccc1C(=O)O)c1cc(S(=O)(=O)N2CCCCC2)cs1,-2,-0.9%,-14%,0%
CN(C)c1ccc(-c2nn3c(C4CCCCC4)nnc3s2)cc1,-15,2.6%,-8%,4%
CCC(C)(C)c1nnc(NC(=O)C2CCN(C(=O)c3ccco3)CC2)s1,nt,-0.9%,3%,-9%
Cc1ccc(-c2csc(NC(=O)c3cc([N+](=O)[O-])ccc3N3CCOCC3)n2)cc1,0,-0.1%,-5%,-3%
COc1ccc(C(=O)N/C(=C\c2ccc(Cl)cc2)C(=O)NCC2CCCO2)cc1 (stereo unspecified),nt,-1.6%,-1%,1%
Cc1cc(C)c(CC(=O)c2ccccc2)c(C)c1,nt,-0.1%,nt,18%
CCOc1ccc(C(=O)NCCC(=O)NCCCC(=O)O)cc1,-10,3.7%,-2%,-13%
COc1cccc(-c2nc(NCCN3CCOCC3)c3ccccc3n2)c1O,0,-1.1%,12%,1%
COc1cc(C(=O)NCCC(=O)NC(C)CCc2ccccc2)cc(OC)c1OC (stereo unspecified),nt,-3.2%,-1%,13%
COc1oc(-c2ccc(Cl)cc2)nc1C(F)(F)F,-21,-0.1%,-1%,-9%
CC(C)CN(C(=O)CCNC(=O)c1ccc(Cl)cc1)C1CCS(=O)(=O)C1 (stereo unspecified),nt,-0.2%,nt,7%
O=C(OCc1cccc(C(F)(F)F)c1)c1cc(S(=O)(=O)N2CCOCC2)ccc1F,nt,-2.6%,nt,-6%
O=c1c2cnn(-c3ccccc3)c2ncn1Cc1ccccn1,-1,-0.6%,-6%,6%
COc1ccc(S(=O)(=O)N/N=C/c2ccc(OCCN3CCOCC3)c(OC)c2)cc1,-5,0.1%,-21%,-23%

# Compound activity: PubChem, National Center for Advancing Translational Sciences (NCATS)
